# Screening data deposited in PubChem by National Center for Advancing Translational Sciences (NCATS).
# NPR1 antag: blocks ANP-stimulated signaling of human Npr1 receptor | HEK293 hNpr1 GloSensor cGMP, ANP-stimulated luminescence | Potency, µM (top dose mostly 46.3 µM), inactives show top-dose activity change, negative = inhibition, usual class: inhibitors | hit rate 1.6% among 76,000 | AID 1347048; active = well fitted inhibition curve with a large enough effect; inconclusive = small, poorly fitted or top-dose-only effect; inactive = no such curve, though single readings can be large or run the other way;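 further: nearly all actives have a fitted effect of over 60% in size; nearly all hits also lower the signal before the agonist is added; a reference antagonist and vehicle were the controls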
# Target sequence (P16066 whole entry, looked up): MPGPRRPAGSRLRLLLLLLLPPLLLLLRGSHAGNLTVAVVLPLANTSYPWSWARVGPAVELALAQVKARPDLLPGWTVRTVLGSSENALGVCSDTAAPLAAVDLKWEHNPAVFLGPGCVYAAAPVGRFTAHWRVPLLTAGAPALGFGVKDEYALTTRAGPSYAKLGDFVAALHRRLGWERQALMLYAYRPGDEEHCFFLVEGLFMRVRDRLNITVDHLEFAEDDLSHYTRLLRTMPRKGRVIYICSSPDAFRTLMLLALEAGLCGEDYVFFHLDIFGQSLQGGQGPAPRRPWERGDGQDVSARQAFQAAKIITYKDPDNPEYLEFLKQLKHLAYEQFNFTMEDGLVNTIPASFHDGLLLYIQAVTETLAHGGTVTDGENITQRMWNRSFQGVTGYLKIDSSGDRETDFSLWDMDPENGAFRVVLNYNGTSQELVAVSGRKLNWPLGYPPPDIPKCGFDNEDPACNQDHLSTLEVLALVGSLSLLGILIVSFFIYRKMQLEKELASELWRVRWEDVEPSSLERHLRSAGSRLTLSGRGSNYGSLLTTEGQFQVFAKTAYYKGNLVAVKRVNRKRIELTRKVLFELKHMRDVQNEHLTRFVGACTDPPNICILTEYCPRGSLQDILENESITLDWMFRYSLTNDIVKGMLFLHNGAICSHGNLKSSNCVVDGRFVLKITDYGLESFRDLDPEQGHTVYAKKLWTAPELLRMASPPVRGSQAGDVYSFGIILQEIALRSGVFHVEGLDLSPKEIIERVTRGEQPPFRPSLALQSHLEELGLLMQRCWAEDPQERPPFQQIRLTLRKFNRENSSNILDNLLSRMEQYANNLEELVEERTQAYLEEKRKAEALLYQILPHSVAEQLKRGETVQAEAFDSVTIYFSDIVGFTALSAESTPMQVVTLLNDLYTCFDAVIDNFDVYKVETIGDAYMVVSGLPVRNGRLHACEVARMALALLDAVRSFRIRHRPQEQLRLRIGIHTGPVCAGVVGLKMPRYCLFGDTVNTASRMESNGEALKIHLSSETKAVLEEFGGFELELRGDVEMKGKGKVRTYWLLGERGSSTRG
#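 HEK293 cells stably expressing human Npr1 and cGMP GloSensor pGS-40F, loaded 2 h with 2% GloSensor reagent, given compound 30 min at room temperature. Luminescence read before and 20 min after 0.1 nM hNppA.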
# * hit, by the source's call; ? = inconclusive; & = joins results of further samples; [ ] = dose if it differs, or a comment. On the % scale 0 is the no-effect control and ±100 the full control effect; potency means the concentration at half of the fitted maximal effect. Only part of the results is shown; count on the stated rates, not on these rows.
NPR1 antag | canonical_smiles
0.0% | CC(C)(CN1CCOCC1)NC(=O)c1csc2nc(-c3ccc(F)cc3)cn12
-26.7% | CCCc1nc(C(=O)NCc2ccc(-n3ccnc3C)cc2)cs1
-14.2% | CN1CCC(C2CCN(S(=O)(=O)c3cc(F)ccc3F)C2)CC1 (stereo unspecified)
-2.1% | O=C(c1nnc(CN2CCOCC2)n1-c1ccccc1)N1CCC[C@@H]1C(c1ccccc1)c1ccccc1
-10.0% | CC(=O)N(C1CCOCC1)C1CCN(S(=O)(=O)c2cc(F)ccc2C)CC1
-0.8% | CCn1cc(S(=O)(=O)N2C[C@@H](COC)[C@H](c3ccncc3)C2)cn1
13.1% | CN1CCCC2(CCN(C(=O)c3cccc(N4CCCC4=O)c3)C2)C1=O (stereo unspecified)
4.5% | CN1CCCCCCN(C(=O)c2ccccn2)[C@H]2CCC[C@H]2C1=O
0.9% | CN(CC1CCOCC1)C(=O)Nc1cccc(Br)c1
9.3%[70.6 µM] | COCCNC(=O)[C@@H](C)C1CCc2c(C)cc(OC)c(C)c2[C@@H]1O (stereo partly specified)
-2.8% | Cc1cccc(CN2C[C@@H]3C(=O)N(CCN4CCc5ccccc5C4)C(=O)[C@@H]3C2)c1
-14.9% | CC1(c2ccccc2)N(Cc2ccccc2)C(=O)OC12CCN(Cc1cccc(O)c1)CC2 (stereo unspecified)
-0.2% | COC[C@]1(O)CCN(S(=O)(=O)c2ccccc2OC)CC1(C)C
-1.0% | O=C(CCc1ccccc1)N1C[C@@H](CO)[C@H](c2nc(C3CC3)no2)C1
7.2% | COc1ccc(OC)c(NC(=O)CN2CC3CC(C2)[C@H]2CCCC(=O)N2C3)c1 (stereo partly specified)
-11.9% | COCCN1CCCCCC(O)c2cc(C(=O)NCCc3ccncc3)ccc21 (stereo unspecified)
-18.0%[70.6 µM] | CC(C)NC(=O)c1cnc2c(c1)N(C(=O)Cc1ccc(C(C)C)cc1)CCC2
4.6% | COCc1nc(CCNC(=O)c2ccc(OC)cc2)no1
-3.8% | O=C(Cn1cccc1-c1nc(-c2ccccc2)no1)Nc1ccc(Cl)cc1
-12.6% | COc1cc(Cl)ccc1C(=O)N(C)C1CCc2nnc(C)n2CC1 (stereo unspecified)
1.9% | CN1CC2(CCN(C(=O)c3ccccc3-c3nn[nH]n3)CC2)CC1C(=O)O (stereo unspecified)
1.3% | COCC1CCN(C(=O)[C@@H]2CN(c3cnccn3)C[C@H]2COC)CC1
0.4% | Cc1cc(C)n(C2CCN(c3ncnc4c3c(C)nn4C)C2)n1 (stereo unspecified)
? | COc1cccc(S(=O)(=O)N2CCC(n3cnnc3C(C)C)CC2)c1
0.0% | COC1CCOC2(CCN(C(=O)c3cc(C)nn3C)CC2)C1 (stereo unspecified)
-5.3% | CS(=O)(=O)N1C[C@@H](C(=O)Nc2ccc(N3CCOCC3)cc2)[C@H](c2ccncc2)C1
-2.4%[70.6 µM] | COc1ccc(-c2noc([C@@H]3Cc4nc[nH]c4CN3Cc3ccccc3)n2)cc1
0.2% | CN(CCc1ccccn1)[C@@H]1[C@H](O)[C@H](CO)O[C@@H]1CNS(=O)(=O)c1cccs1
2.4% | COCCNC(=O)N1CCC(OC2CCN(Cc3ccccc3)CC2)CC1
-20.7% | Cc1cc(C)c(S(=O)(=O)NCCn2c(C)cnc2C2CCC2)cc1C

# Some of these compounds in order of molar mass, highest first:
NPR1 antag | canonical_smiles
-3.8% | O=C(Cn1cccc1-c1nc(-c2ccccc2)no1)Nc1ccc(Cl)cc1
? | COc1cccc(S(=O)(=O)N2CCC(n3cnnc3C(C)C)CC2)c1
-12.6% | COc1cc(Cl)ccc1C(=O)N(C)C1CCc2nnc(C)n2CC1 (stereo unspecified)

# The listing continues:
NPR1 antag | canonical_smiles
? | CCn1nccc1C(=O)N1CCC2(CC1)CC(N(Cc1ccc(F)cc1)C1CC1)CCO2 (stereo unspecified)
0.3% | CNC(=O)[C@@H]1CN(C(=O)c2cc(C)n(CCOC)c2C)C[C@H]1CO
? | O=C(NCc1cccnc1)c1ccc2oc(-c3ccc(C(F)(F)F)cc3)nc2c1
-3.7% | O=C(O)[C@@H]1CN(C(=O)CCn2ccc(=O)[nH]c2=O)C[C@H]1c1cccc(F)c1
1.9%[70.6 µM] | CCNC(=O)N[C@H]1CC[C@]2(C)CC[C@@H]([C@H](C)C(=O)NCc3ccco3)[C@H](O)[C@H]2[C@@H]1C
-11.4% | CCc1cccc2c(C(CC(=O)NC(C)CC)c3ccc(OC)c(OC)c3)c[nH]c12 (stereo unspecified)
-1.6% | C[C@@H](NC(=O)C1=C[C@@H](NC(=O)Nc2ccccc2Br)[C@@H](O)[C@H](O)C1)C(N)=O
-5.5% | COc1ccc(-c2onc(C)c2C(=O)NCCOc2ccccc2)cc1
-0.1% | COc1ccc(C)cc1NC(=O)CN1C(=O)C(c2ccccc2)=NC12CCCC2
0.4% | COCCNC(=O)C(NC(=O)c1ccc(OC)cc1)C1CCN(C(=O)c2cccc(C)c2)CC1 (stereo unspecified)
2.9% | CCC1(N2CCN(S(=O)(=O)c3ccc(C(F)(F)F)cc3)CC2)CCN(C(=O)NC)C1 (stereo unspecified)
0.5% | COc1ccc2c(c1)OCC(C(=O)NCc1cc3cc(OC)ccc3[nH]1)C2 (stereo unspecified)
-5.0% | Cc1nn(CC(=O)N2CCCCCC2)c(=O)c2nc(C(C)C)sc12
1.4% | N#Cc1ccc(O[C@@H]2CCOC[C@H]2NC(=O)CN2CCOC2=O)cc1
1.7% | COc1cc(=O)n2c(c1C(=O)Nc1ccccc1F)CCCC2
-9.3% | COc1ccc(CN2CC3(CCN(C(=O)Cn4c(=O)oc5ccccc54)CC3)C2=O)cc1
-3.0% | O=C(Nc1ccccc1F)C1CCN(C(=O)c2ncn3c2COC(c2ccc(F)cc2)C3)CC1 (stereo unspecified)
-15.5%[70.6 µM] | Cc1ccc(C(=O)N2CCCC3(COc4ccccc4C(=O)N3)C2)cc1 (stereo unspecified)
-13.1% | CC(Oc1ccccc1)C(=O)N1CCC(n2cc(-c3nc(C(C)C)no3)nn2)C1 (stereo unspecified)
3.9% | Cc1cc(C)c(C(=O)N2CC(c3nc(CCN(C)C(=O)C4CC4)no3)C2)c(C)c1
-0.3% | CCNC(=O)[C@@H]1C[C@@H](NC(=O)c2csc(C)c2CC)CN1C1CCCC1
-14.8% | CCOCC(=O)NCCc1noc(-c2ccccc2)n1
4.1% | Cc1ccc(CN2CC[C@@H]3CN(S(C)(=O)=O)[C@@H]3C2)c(C)c1
3.3% | Cc1noc(C2CC3(CCN(C(=O)CCC4CCCC4)CC3)CN2C)n1 (stereo unspecified)
6.6% | N#Cc1ccc(C(=O)N2CCCCCNC(=O)[C@@H]3CCC[C@@H]32)cc1
-2.9% | CCCC(=O)NC1CCN(c2cc(C)cc(C)c2)C1=O (stereo unspecified)
0.0% | COC(=O)CCC(=O)N1CCCC(CCc2c(F)cccc2F)C1 (stereo unspecified)
-1.0% | CCOc1ccccc1N1CCN(C(=O)CN2CC3CC(C2)[C@H]2CCCC(=O)N2C3)CC1 (stereo partly specified)
0.0% | O=C(c1ccc2c(c1)OCO2)N1CCC2(CC1)COc1ccccc1NC2=O
-13.6% | CC(=O)c1cccc(NC(=O)Cn2c(-c3ccc(F)cc3)nc(C)cc2=O)c1
? | O=C(c1ccccc1Cl)N1CCN(c2cc(C(F)(F)F)ncn2)CC1
1.0% | COC(=O)CCNC(=O)C1c2ccccc2C(=O)N(Cc2ccco2)C12CCCCC2 (stereo unspecified)
0.0% | Cc1nnc(NC(=O)C2CC(=O)N(c3n[nH]c4cc(Br)ccc34)C2)s1 (stereo unspecified)
4.9% | CCc1ccc(C(=O)N2C[C@@H](CO)[C@H](N(C)C)C2)cc1
6.1%[70.6 µM] | COCCN1C(=O)[C@@H]2C[C@@H](CN2C(=O)c2cnccn2)Oc2ccccc21
-0.2% | COc1cccc(C(CC(=O)NCc2ccc3c(c2)OCO3)c2c[nH]c3ccccc23)c1OC (stereo unspecified)
0.7% | CCCOc1ccc(CNC(=O)[C@H]2CCC[C@H]2NC(=O)c2ccncc2)cc1
0.4% | O=C1CCCN1Cc1nc(-c2ccc(F)cc2)no1
0.4%[70.6 µM] | Cn1ccc2c(C(=O)NCc3cccnc3)nc(-c3ccc(CO)cc3)cc21
-11.2% | Cc1cc(=O)n(CC(=O)Nc2cccc(C#N)c2)c(-c2ccc(F)cc2)n1
-9.6% | COc1ccc(-n2nc(C3CCCN(C(=O)Cc4ccc(F)cc4)C3)[nH]c2=O)cc1 (stereo unspecified)
-2.1% | O=C(c1nc(-c2cccc(C(F)(F)F)c2)c2ccccn12)N1CCN(c2ncccn2)CC1
3.6%[70.6 µM] | Cc1cc(C(=O)N[C@@H]2CCC[C@@H](C(=O)N3CCN(C)CC3)CC(=O)N(C)C2)nn1C
-8.0%[70.6 µM] | Cc1ccc(S(=O)(=O)Cc2noc([C@@H]3C[C@@H](O)CN3Cc3cccs3)n2)cc1
-6.8%[70.6 µM] | COc1ccc(-c2ccc3ncc(Nc4cc(F)ccc4OC)n3n2)cn1
0.2%[70.6 µM] | CC1=C[C@@H](CN2CCOCC2)[C@H](C(C)C)C[C@H]1Cc1nnc(C)o1
-17.9% | O=C(Cn1cccc1-c1nc(-c2ccc3c(c2)OCO3)no1)N1CCCc2ccccc21
0.5% | COc1ccc(C)cc1NC(=O)N1c2ccccc2CC1c1nc(C2CC2)no1 (stereo unspecified)
8.1% | O=C(C1CCCC1)N1CCC2(CC1)CC(=O)N(c1ccccc1)c1ccccc1O2
0.0%[70.6 µM] | COC(=O)[C@@H]1Cc2nc[nH]c2CN1Cc1ccc(C(=O)O)cc1
-0.3% | Cc1ccc(C(=O)NCC2CCCCC(=O)N2)cn1 (stereo unspecified)
8.91µM* | Cc1ccc(Cl)cc1N1CCN(c2cc(C3CC(O)C3)ncn2)CC1 (stereo unspecified)
25.0% | Cc1noc(-c2cn(C3CCN(C(=O)c4ccc(C)s4)CC3)nn2)n1
? | COC(=O)c1ccc(COC(=O)C2=CN(C)S(=O)(=O)N=C2C)o1
-5.0% | O=C([C@H]1C[C@@H](F)CN1S(=O)(=O)c1ccccc1F)N1CCOCC1
7.94µM* | COc1ccc(C2(C(=O)N3CCC(Cc4nc(-c5ccccc5)no4)CC3)CC2)cc1
-20.6% | O=C(Cc1c(F)cccc1Cl)NC1CCN(c2cc(-c3ccc(F)cc3)[nH]n2)CC1
0.9% | CCc1ccc(CN2CCC(CNC(=O)c3ccc(C)nc3)C2)nc1 (stereo unspecified)
-2.1%[70.6 µM] | COc1ccc([C@H]2C[C@@H](O)[C@@H](O)[C@@H]2NS(=O)(=O)c2cccc(C#N)c2)cc1
? | CCc1cccc(NC(=O)N2CCCC(c3noc(COc4ccccc4)n3)C2)c1 (stereo unspecified)

# Filtered by structure: the compounds so far containing a Cl atom
NPR1 antag | canonical_smiles
-3.8% | O=C(Cn1cccc1-c1nc(-c2ccccc2)no1)Nc1ccc(Cl)cc1
-12.6% | COc1cc(Cl)ccc1C(=O)N(C)C1CCc2nnc(C)n2CC1 (stereo unspecified)
? | O=C(c1ccccc1Cl)N1CCN(c2cc(C(F)(F)F)ncn2)CC1
8.91µM* | Cc1ccc(Cl)cc1N1CCN(c2cc(C3CC(O)C3)ncn2)CC1 (stereo unspecified)
-20.6% | O=C(Cc1c(F)cccc1Cl)NC1CCN(c2cc(-c3ccc(F)cc3)[nH]n2)CC1

# Additional records follow:
NPR1 antag | canonical_smiles
-1.6%[70.6 µM] | COc1ncccc1-c1csc(CN2CCCC(C)(NC(C)=O)C2)c1 (stereo unspecified)
-0.4%[70.6 µM] | CC1=C[C@@H](CO)[C@H](C(C)C)C[C@H]1Cc1nnc(C(C)(C)C)o1
-3.9% | CC1(C)C(=O)N(Cc2ccccc2)[C@H]2CN(Cc3cccc(OC(F)(F)F)c3)C[C@@H]2[S+]1(=O)[O-]
-0.2% | COc1ccc(CCC(=O)N2C[C@@H](Oc3ccccc3)C[C@H]2C(=O)N2CCOCC2)cc1
6.3% | CCOc1ccc(NC(=O)N2CC(c3nnc(-c4ccncc4)o3)C3(CCOCC3)C2)cc1 (stereo unspecified)
-2.0% | CC(C)(C)CN1CCNC(=O)C1CC(=O)O (stereo unspecified)
8.3% | CN(CCC1CCOCC1)Cc1ccccc1OCC(O)CN1CCSCC1 (stereo unspecified)
0.8% | COC[C@@H]1CN(C(=O)c2ccc(C#N)cc2)C[C@H]1c1nc(C)no1
9.7% | O=C(c1cnccn1)N1CCC([C@@H]2CNC[C@H]2CO)CC1
-13.3%[70.6 µM] | COc1cc(-c2nc(-c3c(C)noc3C)cc3cc(CN(C)C)oc23)ccn1
-0.9% | O=C1CCC2(CCCO2)CCN1Cc1cccc(F)c1C(F)(F)F (stereo unspecified)
-5.8% | COCCN1C(=O)[C@H]2CN(Cc3ccc(OC)c(OC)c3OC)C[C@H]2C1=O
-1.8% | O=C(c1cccc(F)c1)N1CCC(Cc2nc(-c3cnccn3)no2)CC1
-1.2%[70.6 µM] | Cc1cc(C(=O)N2CCOC[C@H](Oc3ccc(C(F)(F)F)cn3)C2)n(C)n1
12.6µM* | O=C(CCC1CCN(c2cc(NC3CC3)ncn2)CC1)N1CCN(c2ccccc2F)CC1
5.2%[70.6 µM] | COCCn1c(C)nnc1-c1cc(-c2cccc(CO)c2)ccn1
12.2%&0.0% | COC(=O)CNC(=O)C1CCN(C(=O)C2CN(c3cccc(OC)c3)C(=O)N2)C1 (stereo unspecified)
4.9% | CCn1cc(S(=O)(=O)NCCc2ncc(C)n2Cc2ccc(F)cc2)cn1
-0.5% | O=C1N(Cc2cccc(F)c2F)CCCC1(O)CN1CCNCC1 (stereo unspecified)
0.8%[70.6 µM] | O=C1OCC2(CCN(Cc3ccccc3O)C2)N1Cc1ccccc1 (stereo unspecified)
